MT1-MMP act inh: blockers of MT1-MMP proenzyme processing, primary screen, HT1080 RFP-PRO-GFP cells, GFP/RFP fluorescence. GFP/RFP ratio fluorescence, overnight; percent of plate control window, DMSO zero. GFP/RFP ratio change, % at 20 µM. hit rate 0.061% among 360,000;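 active means GFP/RFP ratio change of at least 30% with cell ATP level not reduced by more than half and red fluorescence within 50% of control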; further: strong numbers were not always called active
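Test system: HT1080 cells expressing an RFP-PRO-GFP fluorescent reporter construct / Compound dosing: single-point 20 µM compound, 1% DMSO / Schedule: cells overnight before dosing, compound overnight, 37 °C, 5% CO2 / Evaluation: GFP/RFP fluorescence ratio / Control set: DMSO and RFP-L50D-GFP cell wells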
eIF4H FP inh: human eIF4H binding inhibitors, primary screen, translation initiation inhibitor project, biochemical, uHTS, fluorescence polarization | Eukaryotic translation initiation factor 4H (Homo sapiens), Q15056 | eIF4H fluorescence polarization binding assay | inhibition, % at 35 µM | hit rate 0.94% among 290,000 | AID 2012, 2009;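 active means 50% or more with normal probe brightness, or confirmed in later tests; about a fifth of its hits are not listed in these tables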;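 further: calls also rest on retests at 20 µM and on dose response follow-up; 0% = protein and probe with vehicle and 100% = probe without protein; strong numbers were not always called active; many hits fall short of the cut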
Env fusion inh: inhibitors of HIV-1 Env-driven cell-cell fusion, primary screen, HeLa-JRFL effector, CEM21 target cells, luciferase; inhibition, % at 12.3 µM; AID 651610, 2012; hit rate 1.1% among 360,000;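 active means mean replicate inhibition score of at least 50 and every replicate individually at or above 50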;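 further: 0% = plate neutral controls and 100% = maraviroc near 300 nM; one replicate is shown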
CSC inhib: cancer stem cell viability inhibitors, primary screen, luminescence | cancer stem cell-like cells viability | inhibition, % at 7.5 µM | hit rate 1.1% among 300,000;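 active means mean at 75% or more and at least half the replicates too; tested in HMLE shEcad cells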;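 further: 0% = median of negative and 100% = median of positive control wells; the first replicate is given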
UUG fidelity: modulators of yeast start codon fidelity, primary screen, whole organism, S. cerevisiae, single point, plate reader; S. cerevisiae UUG-firefly luciferase reporter, luminescence/redox ratio; hit rate 0.13% among 350,000; activity score, % at 18.7 µM; AID 602363, 2012;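 active means replicate mean at a twofold rise or more, about +100% in these data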;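 further: firefly luciferase made from a UUG start codon reports start codon fidelity; reporter light over untreated wells divided by growth signal over untreated wells; some hits fall short of that in this replicate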
PABP FP inh: PABP poly(A) RNA binding inhibitors, primary screen, biochemical, fluorescence polarization, uHTS. inhibition, % at 35 µM. hit rate 1% among 290,000. AID 2014, 2009;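 active means 50% or more with normal probe brightness, or confirmed in later tests; about a fifth of its hits are not listed in these tables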;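 further: calls also rest on retests at 20 µM and on dose response follow-up; controls were probe without protein and protein plus probe with vehicle; some compounds called inactive have numbers as strong as hits; many hits fall short of the cut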
Rce1 inh: yeast Rce1p protease inhibitors, primary screen, biochemical, fluorescence, cell-free homogeneous | hit rate 0.27% among 290,000 | AID 2563, 2010 | yeast membranes, quenched prenylated peptide cleavage fluorescence | calls only;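 active means fall in fluorescence gain of 50% or more versus controls, with final raw signal at or below 3038400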;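 further: plate controls were neutral control wells for no effect and wells lacking membranes for full effect; tested at 10 µM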
Target sequence (Q03530 whole entry, looked up): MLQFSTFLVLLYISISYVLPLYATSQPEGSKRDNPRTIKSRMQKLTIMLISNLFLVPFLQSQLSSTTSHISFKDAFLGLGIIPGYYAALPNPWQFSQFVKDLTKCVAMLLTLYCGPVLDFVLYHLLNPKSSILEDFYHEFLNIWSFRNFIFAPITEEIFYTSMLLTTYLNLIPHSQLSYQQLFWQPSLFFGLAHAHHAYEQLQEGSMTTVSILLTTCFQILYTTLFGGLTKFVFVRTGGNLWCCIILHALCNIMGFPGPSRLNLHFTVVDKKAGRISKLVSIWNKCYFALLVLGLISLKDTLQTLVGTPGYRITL
eIF4H FP inh retest: second read-out of eIF4H FP inh, no call of its own (marks repeat the call); inhibition, %; compound at 20 µM; confirmation average;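 mean of two retest wells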
PABP FP inh retest: recorded beside PABP FP inh, whose call it bears; inhibition, %; compound at 20 µM; confirmation repeats;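 mean of two retest wells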
MT1-MMP act inh RFP: recorded beside MT1-MMP act inh, whose call it bears; RFP signal change, %; measured here: RFP expression control read;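 0 = vehicle wells; hits needed this value within 50% of zero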
Active calls of the source: *; i = inactive; nt = not tested or not shown; & = joins results of further samples. An excerpt, so the mix of outcomes need not match the whole.

SMILES	MT1-MMP act inh	MT1-MMP act inh RFP	eIF4H FP inh	Env fusion inh	CSC inhib	UUG fidelity	PABP FP inh	Rce1 inh	others
COC(=O)Cc1ccc(NC(=S)N2CCN(C)CC2)cc1	0	0	-2	-5	-11	nt	-6	i
CN(c1ccc(C(=O)COC(=O)C2CC2)cc1)S(C)(=O)=O	3	2	nt	-18	-10	-52	nt	nt
CCSc1cc(C)nc2ncnn12	2	11	-18	nt	-9	-23	-8	i
CC(C)[C@H](N)c1nnc2n1N=C(c1ccc(Cl)cc1)CS2	5	6	2	2	-19	-6	5	i
O=C(CCc1ccccc1)NC(=S)Nc1ccccc1Br	0	3	6	7	14	nt	-6	i
O=C(NNc1ncnc2c1cnn2-c1cccc(Cl)c1)c1ccco1	3	3	2	6	5	-11	14	i
CNC(=S)N/N=C(\C)c1ccc(C(C)(C)C)cc1	3	0	-1	-6	-9	-24	25	i
CCOc1cc(/C=N/NC(=O)c2ccc(O)cc2)ccc1Oc1nc(Cl)ncc1F	1	-1	-5	2	-2	nt	3	i
CC1Cc2ccccc2N1C(=O)c1cnc2ccccn2c1=O (configuration not stated)	0	2	4	-61	1	-9	-1	i
Cc1ccc(C(=O)Nc2cccc(-c3ccc(N4CCOCC4)nn3)c2)cc1[N+](=O)[O-]	1	0	nt	-38	nt	-12	nt	i
CCOc1ccc(NC(=O)[C@@H]2CCC(=O)N2C2OC(=O)c3ccccc32)cc1 (some centres not stated)	2	2	-14	nt	-12	-6	-1	i
O=C(CN(CC1CCCO1)C(=O)CCC(=O)Nc1nccs1)NCc1ccccc1 (configuration not stated)	4	0	-6	-63	-2	-7	11	i
COc1ccccc1CNc1nc2nc3c(c(=O)n2[nH]1)CCC3	10	5	-8	-62	-3	-11	8	i
O=C(/C=C/c1ccco1)NC(=S)Nc1cc(-c2nc3ccccc3s2)ccc1Cl	-5	1	65	-23	41	nt	3	nt	eIF4H FP inh retest=-10;PABP FP inh retest=3
CC(C(=O)O)C(=O)O	-1	3	nt	26	-10	-17	nt	nt
CCC(=O)NC(c1ccc(OC)cc1)c1c(O)ccc2ccccc12 (configuration not stated)	-6	-13	-2	9	57	16	-3	i
CC(O)(c1cccc(F)c1)c1nc(-c2cnc3ccccc3c2)cs1 (configuration not stated)	-4	-21	nt	15	nt	-14	nt	nt
Cc1cc(-c2n[nH]c(=S)n2/N=C/c2cccc(O)c2)n[nH]1	6	4	-2	-2	-12	-22	5	i
COc1ccc(Br)cc1CNC(=O)C1CCN(C(=O)N(C)C)CC1	-2	3	-1	0	-8	nt	-3	i
CC1CCCCN1C(=O)Cn1c(=O)oc2ccccc21 (configuration not stated)	0	0	nt	-98	-16	-23	nt	i
Cc1cc(C)nc(NC2=NCCN2C(=S)Nc2c(C)cccc2C)n1	-3	0	3	15	nt	-18	1	i
CN(CC(=O)Nc1cccc(F)c1)C(=O)c1sc2ccccc2c1Cl	-1	-1	nt	-7	13	-5	nt	nt
C=CCn1c(SCc2c(C(=O)OC)sc(N)c2C(=O)OC)nnc1-c1ccc(Br)cc1	4	-3	-8	nt	-8	-11	7	i
Cc1ccc(F)cc1C(=O)N1CCOCC1c1cc(C(=O)Nc2ccccc2)no1 (configuration not stated)	-1	-1	nt	-2	nt	3	nt	nt
Cc1ccccc1NS(=O)(=O)c1ccc(S(=O)(=O)N2CCCC2)cc1	2	-8	nt	-1	nt	-35	nt	nt

Reprinted from the part before: 4 entries, then new ones.
SMILES	MT1-MMP act inh	MT1-MMP act inh RFP	eIF4H FP inh	Env fusion inh	CSC inhib	UUG fidelity	PABP FP inh	Rce1 inh	others
CN(CC(=O)Nc1cccc(F)c1)C(=O)c1sc2ccccc2c1Cl	-1	-1	nt	-7	13	-5	nt	nt
C=CCn1c(SCc2c(C(=O)OC)sc(N)c2C(=O)OC)nnc1-c1ccc(Br)cc1	4	-3	-8	nt	-8	-11	7	i
Cc1ccc(F)cc1C(=O)N1CCOCC1c1cc(C(=O)Nc2ccccc2)no1 (configuration not stated)	-1	-1	nt	-2	nt	3	nt	nt
Cc1ccccc1NS(=O)(=O)c1ccc(S(=O)(=O)N2CCCC2)cc1	2	-8	nt	-1	nt	-35	nt	nt
Cc1cc(C)n(S(=O)(=O)c2ccc(Cl)c(Cl)c2Cl)n1	-6	2	-16	-81	-2	-7	-2	i
CC(=O)NS(=O)(=O)c1ccc(NC(=O)c2ccc(Br)o2)cc1	3	7	3	-4	-13	-18	4	i
O=C(Nc1cccc(C(F)(F)F)c1)C1CCCN(S(=O)(=O)c2cnc[nH]2)C1 (configuration not stated)	7	-2	18	-19	-13	-8	0	i
CCOC(=O)C1(C)NC(c2cccc(C)c2)C2C(=O)N(c3ccccc3)C(=O)C21 (configuration not stated)	8	8	3	2	2	2	-6	i
O=c1oc2c(CN3CCN(CCO)CC3)c(O)ccc2cc1-c1ccccn1	-3	3	15	-9	-1	-23	27	i
CCCCC(=O)Nc1ccc(C(N)=O)cc1	-3	4	-1	-24	7	-17	5	i
Cc1ccc(C(=O)NCCN2CCOCC2)cc1	0	4	-6	nt	9	-10	2	i
CN(C)/C=C/C(=O)c1ccc(Oc2ccccc2)cc1	-1	0	-15	-25	-8	-15	3	i
COc1ccc(Cc2nnc(NC(=O)Nc3ccc(C)cc3)s2)cc1OC	nt	nt	-4	-3	-6	-12	4	i
Cc1cccc(C)c1OCC(=O)N(Cc1ccc(Cl)cc1)C1CCS(=O)(=O)C1 (configuration not stated)	0	-2	2	1	1	9	12	i
COc1ccc(NC(=O)COC(=O)c2ccc([N+](=O)[O-])o2)cc1Cl	4	3	-3	-9	5	nt	22	i
COc1ccc(/C=N/NC(=O)c2ccc(=O)[nH]n2)cc1OC	1	3	-5	3	2	nt	-1	i
CCN(C[C@H]1N[C@@](Cc2ccccc2)(C(=O)OC)[C@H]2C(=O)N(C)C(=O)[C@@H]12)C(=O)c1ccc(F)cc1	0	4	nt	-10	nt	9	nt	nt
C/C(=C\C(=O)c1ccc(Cl)cc1)NCc1ccc2c(c1)OCO2	1	-1	2	nt	-1	-19	7	i
COC(=O)c1ccccc1NC(=O)CSc1ncn[nH]1	0	0	0	5	-11	nt	-12	i
COc1cc(/C=N/NC(=O)c2ccc3c(c2)OCCO3)cc(Cl)c1O	-1	-1	0	-7	18	-12	-1	i
Cc1cc(C(=O)Nc2ccc(S(=O)(=O)N3CCOCC3)cc2)ccc1[N+](=O)[O-]	5	-8	3	-15	-12	2	-2	i
O=C(NCCCN1CCOCC1)C1Nc2ccc(OC(F)(F)F)cc2C2C=CCC12 (configuration not stated)	3	1	nt	-11	14	5	nt	i
O=C(NCC1CC1)c1cc(-c2ccccc2)nn1CC1CC(c2cccnc2)=NO1 (configuration not stated)	-4	-1	nt	-21	9	-13	nt	i
c1ccc(-c2nnc(SCC3CCCO3)nc2-c2ccccc2)cc1 (configuration not stated)	-2	-6	4	15	39	-1	7	i
N/C(Cc1ccc([N+](=O)[O-])cc1)=N\OC(=O)c1ccccc1F	2	2	-3	-18	7	0	-4	i
COc1cc(NC(=O)CN2CCN(Cc3ccc4c(c3)OCO4)CC2)cc(OC)c1	-8	-1	2	12	4	6	-8	i
COc1ccc(CCNC(=O)c2ccc(Cl)cc2)cc1OC	5	5	9	-66	2	1	-17	i
Cc1ccc(CNC(=O)c2ccc(N3CCC4(CC3)CC(c3cccc(Br)c3)=NO4)c([N+](=O)[O-])c2)cc1	7	-4	nt	nt	8	-25	nt	i
CCOc1ccccc1NC(=O)c1ccc(S(=O)(=O)N(C)C)cc1	4	2	0	17	16	-4	0	i
Carrying on:
SMILES	MT1-MMP act inh	MT1-MMP act inh RFP	eIF4H FP inh	Env fusion inh	CSC inhib	UUG fidelity	PABP FP inh	Rce1 inh	others
O=S(=O)(c1c(Cl)cc(Br)cc1Cl)N1CCN(C(=S)NC2CC2)CC1	4	-17	nt	-3	-11	-13	nt	nt
c1cc(-c2ccc(CN3CCOCC3)cc2)n2ccnc2c1	3	2	nt	-7	nt	-23	nt	nt
CCc1cc(C(=O)Nc2nc(-c3ccccn3)cs2)sc1C	-4	0	nt	24	20	-26	nt	nt
CCCCc1ccc(NC(=O)CSC2=C(C#N)C(c3ccco3)C3=C(CCCC3=O)N2)cc1 (configuration not stated)	-7	-14	4	nt	10	-7	12	i
Cc1cc(C)cc(-n2c(C)cc(/C=N\NC(=O)COc3cccc4cccnc34)c2C)c1	-4	-6	-4	-8	14	-3	-4	i
O=C1Nc2ccc(Br)cc2C1=C1CCCCC1	-8	-2	3	11	23	-10	8	i
C/C(=N\NC(=O)C1CC1)c1ccc(C)cc1C	2	2	nt	-6	-5	nt	nt	i
COc1nc(N/N=C/c2ccc(-c3ccccc3[N+](=O)[O-])o2)nc(N2CCOCC2)n1	7	8	1	5	-13	-4	2	i
CCc1nnc(NS(=O)(=O)c2ccc(NCc3cc(Cl)ccc3O)cc2)s1	3	1	2	-4	nt	-12	20	i
CCCOc1ccc(F)cc1-c1cc(C(=O)Nc2ccc(F)cc2)[nH]n1	-1	-19	nt	-45	nt	-2	nt	nt
OCC1(Cc2cccc(Cl)c2)CCCN(Cc2cnn(-c3ccccc3)c2)C1 (configuration not stated)	-5	0	-2	-28	32	nt	-4	i
O=C(OCc1ccc([N+](=O)[O-])cc1)c1cc(=O)c2ccccc2o1	1	3	-5	-13	-7	-19	7	i
O=C(O)CC(NC(=O)C12CC3CC(CC(C3)C1)C2)c1ccc2c(c1)OCO2 (configuration not stated)	3	1	-3	2	-12	nt	-3	i
CCC1Nc2ncnc(N3CCN(c4ccccc4)CC3)c2N(Cc2ccccc2)C1=O (configuration not stated)	-3&-1	-2&-4	nt	-36	nt	-20&-8	nt	nt
CCCCCCCn1c(C)nnc1-c1cnn(C)c1N	-1	5	2	-1	-4	nt	-1	i
Cc1ccc(/C=C2\SC(=S)N(C3CCS(=O)(=O)C3)C2=O)o1 (configuration not stated)	8	8	23	2	13	-2	-7	i
CC(=O)Nc1ccc(NS(=O)(=O)c2ccc(C)cc2)cc1[N+](=O)[O-]	3	-6	1	-14	13	-7	-7	i
Cc1csc(NC(=O)C2CCN(C(=O)c3ccccc3C)CC2)n1	2	3	3	4	-8	nt	5	i
CSCC[C@H](CO)NC(=O)[C@H]1O[C@@H](n2cnc3c(N)ncnc32)[C@H](O)[C@@H]1O	1	4	nt	9	nt	-6	nt	nt
CC1CC(NC(=O)C2(C)CC2(Cl)Cl)CC(C)(C)C1 (configuration not stated)	2	3	-4	-74	-3	nt	3	i
COCCn1c(=NC(=O)c2ccco2)sc2cc(C(=O)OC)ccc21	-5	-3	-10	13	-11	68	-4	i
Cc1cccc2c(=O)cc(C(F)(F)F)[nH]c12	-8	-7	6	28	16	nt	0	i
Cc1cc(C)c(NC(=O)CSc2nnnn2-c2cccnc2)c(C)c1	-2	2	-11	1	-6	-10	2	i
CC1Cc2ccccc2N1C(=O)CSc1nncs1 (configuration not stated)	-1	1	nt	nt	-1	-3	nt	nt
O=C(CCN1C(=O)C2C3C=CC(C3)C2C1=O)Oc1ccc2ccccc2c1 (configuration not stated)	1	7	-11	4	-1	nt	-5	i

Screening data as filed in PubChem.
